Mtb H37Rv – Mycobacterium tuberculosis H37Rv growth inhibition, cell based, confirmatory dose response (AID 1949); inhibition, % at 10 µg/mL, or IC50 in µg/mL where a hit was titrated; 1.6% of 100,000 active; most inactive calls were filed without a number and no value below 0 was filed;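 active means confirmed in a dose series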;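 further: bacteria grown 7 days with compound before Alamar blue readout; 0% = untreated bacteria and 100% = reference antibiotic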
Active calls of the source: *; i = inactive.

SMILES	Mtb H37Rv
Cc1cccc(C)c1OCC(=O)N1CCN(c2ccccc2F)CC1	1%
CCCN(CC1CC1)S(=O)(=O)c1ccc(S(N)(=O)=O)cc1	i
CCOC(=O)c1ccc(N2C(=O)C(CC(=O)Nc3ccc(F)cc3)N(CCN3CCOCC3)C2=S)cc1 (stereo not drawn)	3%
COc1ccc(NC(=O)CN(C)S(=O)(=O)c2cc(Cl)ccc2Cl)cc1Cl	i
Cc1ccc(OCCSCc2nnc(NC(=O)Cc3ccccc3)s2)cc1	2%
Cc1cccc(OCCNCc2ccccc2)c1	i
Cc1cc(C)c2c(CC(=O)NN(C)C)coc2c1	i
COc1ccc2nc(NC(=O)C(Sc3ccccc3)c3ccccc3)sc2c1 (stereo not drawn)	4.9µg/mL*
COc1ccc(OC)c(/C=C(\C#N)C(N)=S)c1	i
COc1ccc(C2CC(c3cccs3)=NN2C(=O)CN2CCCC2)cc1 (stereo not drawn)	1%
CN1CCN(c2ccc(NC(=O)c3cccc4ccccc34)cc2)CC1	2%
c1cncc(CN2CCN(C3CCCCCC3)CC2)c1	1%
Cc1noc(C)c1C(=O)Nc1ccccn1	i
CC1(C)CC(=O)c2cc(C(=O)N3CCCCC3)c(=O)n(-c3ccc(Cl)cc3)c2C1	i
S=C(c1ccc(OCCOc2ccccc2)cc1)N1CCCCC1	0%
Cc1c(C(=O)Nc2ccccc2)sc2ncn(CC(=O)N3CCC(C)CC3)c(=O)c12	i
CCOC(=O)N1CCN(C(=O)COc2ccc(Cl)cc2)CC1	i
Cc1ccccc1NC(=O)c1c(-c2ccc(F)cc2)sc2nc(N)ccc12	4%
COC(=O)Nc1ccc(OCC(=O)N2CCOCC2)cc1	i
Cc1cccc(NC(=O)CN(c2ccc([N+](=O)[O-])cc2)S(=O)(=O)c2ccccc2)c1C	1%
O=c1c2c3c(sc2nc2n1CCCCC2)CCCC3	10%
CC(=O)n1nc(-c2ccc(Cl)cc2)nc1NCc1ccco1	i
O=C(CN1C(=O)c2ccccc2S1(=O)=O)N1CCOCC1	i
Cc1ccc(S(=O)(=O)NCC(C)NS(C)(=O)=O)cc1 (stereo not drawn)	i
CNCCOc1cc(C)c(Cl)c(C)c1	i
COc1cccc(S(=O)(=O)Nc2ccc(C)cc2)c1	3%
CCOC(=O)c1ccc(NS(=O)(=O)c2ccc(Br)c(OC)c2)cc1	i
COc1ccc(C2C3=C(CCCC3=O)NC3=C2C(=O)c2ccccc23)c(OC)c1OC (stereo not drawn)	3%
CC1=[N+]([O-])C(C)(C)C(c2ccco2)=[N+]1[O-]	10%
COC(=O)c1ccccc1NC(=O)CSc1nc(N)cc(=O)[nH]1	i
O=C(Nc1nc(-c2cccc(Br)c2)cs1)c1ccncc1	i
CS(=O)(=O)N1CCC(C(=O)Nc2ccccc2F)CC1	i
COC(=O)c1cc(NC(=S)Nc2ccc(N3CCOCC3)cc2)cc(C(=O)OC)c1	i
c1cncc(Nc2nc(-c3ccncc3)cs2)c1	i
CSc1cccc(NC(=O)Cn2c(C)c(C=O)c3ccccc32)c1	i
COc1ccc(OC)c(NC(=O)CSc2nc(C)cc(C)n2)c1	i

A run of entries from the list above, for reference:
SMILES	Mtb H37Rv
Cc1cccc(NC(=O)CN(c2ccc([N+](=O)[O-])cc2)S(=O)(=O)c2ccccc2)c1C	1%
O=c1c2c3c(sc2nc2n1CCCCC2)CCCC3	10%
CC(=O)n1nc(-c2ccc(Cl)cc2)nc1NCc1ccco1	i
O=C(CN1C(=O)c2ccccc2S1(=O)=O)N1CCOCC1	i
Cc1ccc(S(=O)(=O)NCC(C)NS(C)(=O)=O)cc1 (stereo not drawn)	i
CNCCOc1cc(C)c(Cl)c(C)c1	i
COc1cccc(S(=O)(=O)Nc2ccc(C)cc2)c1	3%
CCOC(=O)c1ccc(NS(=O)(=O)c2ccc(Br)c(OC)c2)cc1	i
COc1ccc(C2C3=C(CCCC3=O)NC3=C2C(=O)c2ccccc23)c(OC)c1OC (stereo not drawn)	3%
CC1=[N+]([O-])C(C)(C)C(c2ccco2)=[N+]1[O-]	10%
COC(=O)c1ccccc1NC(=O)CSc1nc(N)cc(=O)[nH]1	i
O=C(Nc1nc(-c2cccc(Br)c2)cs1)c1ccncc1	i
CS(=O)(=O)N1CCC(C(=O)Nc2ccccc2F)CC1	i
COC(=O)c1cc(NC(=S)Nc2ccc(N3CCOCC3)cc2)cc(C(=O)OC)c1	i
c1cncc(Nc2nc(-c3ccncc3)cs2)c1	i
CSc1cccc(NC(=O)Cn2c(C)c(C=O)c3ccccc32)c1	i
COc1ccc(OC)c(NC(=O)CSc2nc(C)cc(C)n2)c1	i

(listing goes on)
SMILES	Mtb H37Rv
CNC(=O)C(=O)NCCN1CCN(C(=O)c2ccccc2Br)CC1	12%
C=CCNCCOc1ccc(Br)cc1Cl	i
CCOC(=O)c1ccc(NC(=O)C(=O)O)cc1	i
CCn1c(SCC(=O)NC(C)c2ccccc2)nnc1C(NC(=O)c1ccccc1)C(C)C (stereo not drawn)	i
O=C(Nc1ccc([N+](=O)[O-])cc1)N1CCCC1	i
CCn1c(SCC(=O)Nc2cc(F)ccc2C)nnc1-c1ccccc1Cl	i
O=C(NCc1ccccc1)c1ccc(CSc2ccccc2)o1	i
Cc1cccc(OCCN2C(=O)c3ccccc3C2=O)c1	i
CC(Oc1ccc(Cl)cc1Cl)C(=O)Nc1ccc(C(=O)O)cc1 (stereo not drawn)	i
O=C(Nc1cc(Cl)ccc1Cl)c1ccc(CSc2ccccc2)cc1	i
COc1ccc(N2CCN(C(=S)Nc3cccc(OC(F)F)c3)CC2)cc1	i
O=C(CN1CCN(c2ccccc2Cl)CC1)Nc1ccc(F)cc1	i

3 compounds from above, sorted by SMILES length, highest first.
SMILES	Mtb H37Rv
COc1ccc(C2C3=C(CCCC3=O)NC3=C2C(=O)c2ccccc23)c(OC)c1OC (stereo not drawn)	3%
S=C(c1ccc(OCCOc2ccccc2)cc1)N1CCCCC1	0%
COC(=O)Nc1ccc(OCC(=O)N2CCOCC2)cc1	i

(continued)
SMILES	Mtb H37Rv
Cn1c(=O)c2c(nc(NCc3cccnc3)n2Cc2cccc(Br)c2)n(C)c1=O	i
CCOCC(=O)Nc1nnc(COC)s1	i
COC(=O)c1sc(NC(=S)N2CCN(c3cccc(C(F)(F)F)c3)CC2)c(C(=O)OC)c1C	i
COCCNC(=S)NNC(=O)C(C)Oc1cc(Cl)ccc1Cl (stereo not drawn)	i
OCCNCc1cccc(OCc2ccccc2Cl)c1	i
CCOc1ccc(NC(=S)NC(=O)CCN2C(=O)c3ccccc3C2=O)cc1	i
O=C(Nc1ccccc1C(F)(F)F)c1ccc(NC(=O)c2ccco2)cc1	i
O=C(OCc1ccc(S(=O)(=O)N2CCOCC2)cc1)c1c2c(nc3ccccc13)CCCC2	1%
CCOC(=O)c1ccc(NC(=O)c2ccc(C)s2)cc1	2.2µg/mL*
Cn1nc([N+](=O)[O-])nc1N1CCCCC1	i
O=C1CC(=O)N(Cc2ccco2)C(=S)N1	i
O=C(N/N=C/c1ccccc1O)c1cc(-c2ccc3ccccc3c2)n[nH]1	i
Clc1ccccc1OCCCOc1ccccc1Cl	1%
O=C(CSc1nnc(SCc2cccc3ccccc23)s1)c1ccc2c(c1)OCO2	i
CCn1c(SCC(=O)Nc2nc(-c3ccc(C)c([N+](=O)[O-])c3)cs2)nnc1-c1ccccc1C	2%
Cc1ccccc1-c1nc2cc(NC(=O)CSc3ccccc3)ccc2o1	i
O=C(c1ccc(NC(=S)Nc2ccccc2C(F)(F)F)cc1)N1CCCCC1	i
C=Cc1ccc(COc2cc3oc(=O)cc(CC)c3cc2Cl)cc1	i
O=C(CN1CCCCC1)Nc1ncc(Cc2ccc(F)cc2)s1	46%
Fc1cccc(Cl)c1Cn1nnc(-c2ccc3c(c2)OCO3)n1	i
CC(NC(=O)c1cccnc1)C(=O)O (stereo not drawn)	i
CSc1ncc(Cl)c(C(=O)N2CCN(C)CC2)n1	i
Cc1ccc2c(=O)cc(-c3ccc(F)cc3)oc2c1	i
CCn1c(SCC(=O)Nc2cc(Cl)ccc2C)nnc1-c1ccccc1C	i
C=CCn1c(SCC(=O)Nc2ccc3c(c2)OCCO3)nnc1-c1ccccc1O	i
CC(=O)Oc1ccc2cc(-c3nc4ccccc4s3)c(=O)oc2c1	i
Cc1cc(OCC(=O)N2CCOCC2)c2c(-c3ccccc3)cc(=O)oc2c1	i
Cc1ccc(NC(=O)CC(C)C)cc1F	i
Cc1cc(Cl)ccc1NC(=O)C(CC(C)C)N1C(=O)c2ccccc2C1=O (stereo not drawn)	i
COc1c(Cl)cc(Cl)cc1C(=O)Nc1ccc(N2CCN(C(=O)C(C)C)CC2)cc1	4%
C=CCn1c(SCC(=O)Nc2cccc(C(=O)N3CCOCC3)c2)nnc1-c1ccc(Br)cc1	i
CCn1c(SCC(=O)Nc2ccc(Br)cc2F)nnc1-c1cccc(C)c1	i
NC(=O)c1ccc(NC(=S)NCc2ccco2)cc1	i
COc1ccc(OC)c(C(C)NC(=S)Nc2cccc(C(C)=O)c2)c1 (stereo not drawn)	3%
CN1C(=O)CC(n2c(CO)nc3ccccc32)C1=O (stereo not drawn)	i
Nc1ccc(S(=O)(=O)Nc2nccc(/C=C/c3cccc(Cl)c3)n2)cc1	i
Cc1csc(/C(C#N)=C/c2ccc(-c3ccccc3)o2)n1	i
CC(C)(C)S(=O)(=O)c1ccccc1C=O	7%
CN1CCN(c2ccc(NC(=S)NC(=O)c3cccc(Br)c3)cc2)CC1	8%
COc1ccccc1CNC(=S)NCCc1ccccc1	2%
COc1cc(C)c(C(C)C)cc1S(=O)(=O)Nc1ccc(F)cc1	i
COc1cc(NC(=O)Nc2cccc(Cl)c2Cl)c(OC)cc1Cl	i
COc1ccc(OC(C)C(=O)NCc2cccnc2)cc1 (stereo not drawn)	i
COc1ccc(OC(C)C(=O)Nc2cc3oc4ccccc4c3cc2OC)cc1 (stereo not drawn)	27%
Cc1ccc(C(=O)N2CCN(c3ccc(NC(=O)c4ccc(Br)o4)cc3)CC2)cc1	38%
CCOC(=O)c1sc(NC(=S)Nc2ccc3c(c2)OCCO3)c(C(=O)OCC)c1C	i
COc1ccc(NC(=O)COc2ccccc2)c(OC)c1	i
CCOC(=O)CSc1ccc(C(F)(F)F)cc1[N+](=O)[O-]	38%
Cc1ccc(-c2nc(N)sc2C)c(C)c1	2%
CCOc1ccc(-c2cc(C(=O)Oc3ccccc3OC)c3ccccc3n2)cc1	i
O=C(C1CCN(Cc2ccccc2O)CC1)N1CCN(Cc2ccc3c(c2)OCO3)CC1	i
Cn1cccc1/C=C(/C#N)c1ccccc1F	2%
O=C(Nc1nc(-c2ccc([N+](=O)[O-])cc2)cs1)C1CCCCC1	i
CSc1ccc(S(=O)(=O)N(Cc2ccccc2)Cc2ccccc2)cc1	5%
N#CC1=C(N)N2C(=C(C#N)C1c1cccs1)Sc1ccccc12 (stereo not drawn)	i
COc1ccc(NC(=O)c2c(NC(=O)CNCc3ccccc3)sc3c2CCC3)c(OC)c1	i
COc1ccc(C)cc1NC(=O)NCc1ccco1	i
O=C(c1c(F)c(F)c(F)c(F)c1F)N1CCN(c2ccc(Cl)cc2)CC1	3%
COc1ccc(OCc2nnc(SCC(=O)Nc3nc(C)cs3)n2-c2ccccc2)cc1	i
CCOc1ccccc1OCC(=O)Oc1ccc(C)cc1C(C)(C)C	17%

(listing goes on)
SMILES	Mtb H37Rv
COCCNC(=S)c1ccc(OC)cc1	i
Cc1cccc2sc(NC(=O)CSc3nc4ccccc4o3)nc12	i
Cc1ccc(NC(=O)CC2NC3CCCCC3NC2=O)cc1Cl (stereo not drawn)	i
COCCNC(=O)c1cc(C)ccc1C	i
COC(=O)c1cccc(OCC(O)Cn2ccnc2)c1 (stereo not drawn)	i
Cc1ccc(NC(=O)c2ccccc2NC(=O)Cc2ccc(Cl)cc2)cc1C	i
COc1cc(OC)c(C(=O)Nc2c(C)cc(C)cc2C)cc1OC	2%
CCOc1ccc(CNC(=O)c2ccccc2N)cc1	4%
Brc1c(OCCCN2CCCCC2)ccc2ccccc12	5%
O=C(c1ccc(OCc2ccccc2)cc1)N1CCCC1	4%
CCOc1ccc(S(=O)(=O)N2CC(C)OC(C)C2)c(C)c1C (stereo not drawn)	i
Cc1nc2ccccc2c(=O)n1CCO	i
Cc1ccc(NC(=O)CN(Cc2ccccc2)S(C)(=O)=O)cc1C	i
CCOC(=O)N1CCN(C(=O)c2cc(I)ccc2NC(=O)c2cccnc2)CC1	i
O=C(c1cccs1)N1CCN(c2cc(N3CCCC3)c(F)cc2[N+](=O)[O-])CC1	i
Cc1ccc(SC(C)C(=O)N2CCN(c3ccccc3)CC2)cc1 (stereo not drawn)	i
Cc1c(Br)ccc(NC(=O)CSc2nnc(Cc3ccccc3)n2C)c1C	i
CCOC(=O)Nc1ccc2c(c1)OCCO2	2%
COc1cccc(-n2c(-c3ccc(F)cc3)n[nH]c2=S)c1	i
O=C(O)c1cccc(NC(=S)NC(=O)c2ccc(Cl)cc2)c1	i
Cc1oc(C)c(C(=O)Nc2ccc(CC(=O)O)cc2)c1C(=O)Nc1ccc(CC(=O)O)cc1	4%
O=C(CN(c1ccccc1)S(=O)(=O)c1ccc(Cl)cc1)NCc1ccncc1	i
COc1ccc(CCC(=O)Nc2cccc(F)c2)cc1	i
O=C1c2ccccc2CCC1C1(O)C(=O)Nc2ccc(Cl)cc21 (stereo not drawn)	i
COc1ccc(NC(=O)c2ccccc2C)cc1	i
C=CCn1c(SCc2csc(C)n2)nc2scc(-c3ccc(OC)cc3)c2c1=O	3%
CCOCC(=O)N(CC)c1ccccc1	i
CCCOc1ccc(OCCOCCN(C)C)cc1	7%
CCCCc1nc2ccccc2c(=O)n1-c1ccc([N+](=O)[O-])cc1	i
O=C(Nn1cnnc1)c1cc(-c2cccnc2)nc2ccc(Br)cc12	i
O=C1CC(NCc2ccco2)C(=O)N1CCc1ccccc1 (stereo not drawn)	i
O=C(NCCO)c1cc2cc(Cl)cc(Cl)c2oc1=O	i
COc1ccc([N+](=O)[O-])cc1COc1ccccc1C(=O)Nc1cccc(C)c1C	i
Cc1nc(-c2ccccc2O)n(CCN2CCOCC2)n1	i
O=C(NCCN1CCN(C(=O)c2ccc(F)cc2)CC1)C(=O)Nc1ccc(Br)cc1	i
CCn1c(SCC(=O)Nc2ncc(C)s2)nnc1-c1ccccc1C	i

Screens deposited in PubChem BioAssay by Southern Research Institute.

These rows are one share of the data; the hit share may differ from the screen's.
